2A firefly: Primary qHTS Assay for Foot and Mouth Disease Virus Antivirals against NCGC Sytravon and CBC Compound Libraries: Firefly Luciferase Signal; HEK cells with a luciferase reporter of 2A StopGo recoding; Potency, µM (doses to about 57.5 µM), for inactives: at the highest dose signal change, negative = less light; actives 0.23% (n = 120,000); AID 1745856, 2022; active = well fitted falling curve with a large enough effect; inconclusive = small, poorly fitted or top-dose-only effect; inactive = no such curve, though single readings can be large or run the other way; further: nearly all actives have a fitted effect of over 60% in size; overnight with compound
2A Renilla: Primary qHTS Assay for Foot and Mouth Disease Virus Antivirals against NCGC Sytravon and CBC Compound Libraries: Renilla Luciferase Signal; HEK cells with a luciferase reporter of 2A StopGo recoding; Potency, µM (series often up to 57.5 µM), for inactives: at the top dose signal change, negative = less light; actives 0.32% (n = 120,000); active means well fitted falling curve with a large enough effect; inconclusive means small, poorly fitted or top-dose-only effect; inactive means no such curve, though single readings can be large or run the other way; further: nearly all actives have a fitted effect of over 55% in size; overnight with compound
Active calls of the source: *; u = inconclusive; & = joins results of further samples; [ ] = another dose, or the depositor's remark. On the % scale 0 is the no-effect control and ±100 the full control effect; potency means the concentration at half of the fitted maximal effect.

canonical_smiles	2A firefly	2A Renilla
CC(C)CC(NC(N)=O)C(=O)N1CCN(S(=O)(=O)c2ccc(C(C)C)cc2)CC1 (stereo not drawn)	-12.8%	-10.9%
Cc1cccc(N2CCN(C(=O)COCc3cc(-c4ccc(F)cc4)on3)CC2)c1C	-3.3%	u
COc1ccc(NC(=O)c2cc3c(=O)n(Cc4cccs4)ccc3nc2C)c(OC)c1	-21.4%	-4.9%
COc1cccc(-c2nc(CN(C)CC(=O)Nc3ccc(Br)cc3C)cs2)c1	9.3%	5.0%
CCOc1ccc(NC(=O)CCc2c(C)nc3c(c(C)nn3-c3ccccc3)c2C)cc1	-3.8%	-9.2%
Cc1ccc(-c2nnc(C(C)Sc3nnc4ccccn34)o2)cc1 (stereo not drawn)	0.0%	11.5%
CC(=O)N1CCC2(CC1)Oc1ccc(Br)cc1C1CC(c3ccc(Cl)cc3)=NN12 (stereo not drawn)	118.6%[activator]	34.2%[activator]
Cc1ccc(C(=O)Nc2cc(-c3nc4ccccc4s3)ccc2C)cc1	95.2%[activator]	6.6%
COCCCC(=O)Nc1nc(-c2c(C)[nH]c3ccccc23)cs1	31.2%[activator]	17.5%
Cc1nn2c(=O)cc(COC(=O)c3ccc(C(C)(C)C)cc3)nc2s1	-11.2%	0.1%
CC(C)(C)C(=O)Nc1ccc(-c2csc(NCc3ccco3)n2)cc1	42.7%[activator]	u
CC(C)Cc1cc(-c2nn3c(-c4cccs4)nnc3s2)n(C)n1	0.4%	-15.1%
CCCCN(CC)CCNC(=O)Cn1c(C)c(C(=O)OCC)c(C)c1-c1ccccc1	-3.1%	-7.4%
COC(=O)Cc1c(C)nc2nc(NCc3cc(F)cc(F)c3)[nH]n2c1=O	9.8%	-4.7%
Cc1nc2nc(NC(=O)c3ccc(C(C)(C)C)cc3)[nH]n2c(=O)c1Cl	-4.4%	-6.8%
c1ccc2c(CSc3ncnc4nc[nH]c34)cccc2c1	u	u
Cc1ccc(C)c(NC(=O)CN2CCC(C(=O)N3CCCC3)CC2)c1	-6.8%	-10.7%
Cc1nnsc1C(=O)Nc1ccc(S(=O)(=O)N2CCOCC2)cc1	10.2%	3.5%
O=C(CN1C(=O)COc2ccc(S(=O)(=O)N3CCCC3)cc21)NCCc1ccc(Cl)cc1	29.0%	0.0%
COC(=O)COc1ccc2c(=O)c(Oc3ccccc3)c(C(F)(F)F)oc2c1	-2.3%	-9.4%

Following part:
canonical_smiles	2A firefly	2A Renilla
Cc1cc(=O)oc2cc(OCC(=O)NC(C)C34CC5CC(CC(C5)C3)C4)ccc12 (stereo not drawn)	-7.4%	3.9%
COC(=O)c1c(C)sc(-c2c(-c3ccc4c(c3)OCCO4)[nH]c3[nH]c(=O)[nH]c(=O)c23)c1O	-4.2%	-9.3%
O=C(COCc1cc(-c2ccco2)on1)Nc1ccc(OC(F)(F)F)cc1	-18.9%	-8.7%
O=C(NC1CCCCC1)C1CC(c2c(F)cccc2Cl)=NO1 (stereo not drawn)	14.7%	179.6%[activator]
CCc1ccccc1N(C)C(=O)Cn1cnc2sc(C)c(S(=O)(=O)N3CCN(c4ncccn4)CC3)c2c1=O	-13.5%	-8.1%
O=c1c2sccc2ncn1Cc1coc(-c2cccc(Cl)c2)n1	21.5%	5.5%
Cc1c(-c2ccccc2)n(Cc2ccccc2)c2ccccc12	20.3%	11.3%
O=C(CCN=C1NS(=O)(=O)c2ccccc21)N(Cc1ccccc1F)C1CC1	-23.3%	50.2%[activator]
CCOc1ccc(S(=O)(=O)Nc2cc(Cl)ccc2OC)c2cccnc12	1.8%	284.1%[activator]
COc1ccc(Cl)cc1NC(=O)C1CCN(S(=O)(=O)c2ccc3c(c2)CCCN3C(=O)C2CCC2)CC1	-13.8%	6.0%
CC1CCCC(NC(=O)c2cc(Sc3cccc(Cl)c3)nc3ccccc23)C1C (stereo not drawn)	-1.2%	179.6%[activator]
CCOc1ccc(CCNC(=O)c2cc(=O)[nH]c3ccc(S(=O)(=O)N4CCCCC4C)cc23)cc1OCC (stereo not drawn)	-27.6%	-2.2%
CC(C)S(=O)(=O)NCC1CCCN(C(=O)c2ccc3ccccc3n2)C1 (stereo not drawn)	-11.5%	-8.7%
COc1ccc(-c2cc(=O)c3c(ccc4ccccc43)o2)cc1	u	18.5%
COC(=O)C1=C(C)OC(N)=C(C#N)C1c1cccc(C(F)(F)F)c1 (stereo not drawn)	10.3%	5.5%
Cc1ccc(C)c(-c2cc(C(=O)N3CCOCC3)c3ccccc3n2)c1	5.8%	18.1%
O=S(=O)(c1cccc2nsnc12)N1CCCC1c1ccc(F)cc1 (stereo not drawn)	4.9%	19.9%
Cc1ccc(S(=O)(=O)NCC(c2ccc(N(C)C)cc2)N2CCc3ccccc32)cc1C (stereo not drawn)	-13.2%	57.7%[activator]
COc1ccc(Cl)cc1NC(=O)CSc1nnc2[nH]c(=O)cc(C)n12	-17.5%	-10.4%
Cc1cccc(OCc2nnc(SCC(=O)c3cc(C)n(-c4cc(C)on4)c3C)o2)c1	-7.2%	-8.1%

Carrying on.
canonical_smiles	2A firefly	2A Renilla
Cc1ccc(CN(C)C(=O)Cn2nnn(-c3cccs3)c2=O)cc1	67.2%[activator]	-8.3%
O=C(NCC(=O)N1CCCCC1)C1CCCN(S(=O)(=O)c2ccc(Cl)cc2)C1 (stereo not drawn)	10.7%	10.2%
CCN(CC)S(=O)(=O)c1ccc(Cl)c(NC(=O)COC(=O)c2cc(=O)c3ccccc3o2)c1	0.0%	11.0%
COc1ccccc1C(=O)N/C(=C\c1cn(S(=O)(=O)N(C)C)c2ccccc12)C(=O)N1CCCC1	-4.6%	107.0%[activator]
Cc1ccc(-c2n[nH]c(=O)c3ccccc23)cc1S(=O)(=O)NCCO	6.3%	42.0%[activator]
COC(=O)c1c(SC)nc2ccccc2c1OCc1ccc(C)cc1C	5.3%	10.6%
O=c1[nH]c(CSc2nc3ccccc3o2)nc2cc(Cl)ccc12	0.0%	42.3%[activator]
COc1ccc(C(=O)Nc2cccc3ccc(C)nc23)cc1	22.7%	17.3%
CC(C)c1nn2c(=O)cc(COC(=O)CNC(=O)c3ccccc3)nc2s1	-5.0%&0.0%	-9.4%&15.6%
CC(Sc1ccc(Cl)cc1)C(=O)NC1CC2CCC1C2 (stereo not drawn)	29.7%	9.1%
Cc1ccc(NC(=O)c2cc(=O)c3ccccc3o2)cc1C	144.6%[activator]	4.2%
Cc1oc(-c2cccs2)nc1C(=O)N1CCOCC1	17.1%	-6.1%
COc1ccccc1CCN1COc2c(cc3c(C)c(C)c(=O)oc3c2C)C1	4.1%	15.2%
O=C(CCc1cn(Cc2ccc(F)cc2)c2ccccc12)NC1CCCCC1	-10.5%	-3.2%
CC[C@@]1(O)C(=O)OCc2c1cc1n(c2=O)Cc2cc3c(CN(C)C)c(O)ccc3nc2-1	u	u
CC(C)c1ccccc1Oc1c(C(F)(F)F)oc2c(CN3CCN(C)CC3)c(O)ccc2c1=O	6.5%	-9.2%
Ic1ccc(CN2CCNCC2)cc1	18.1%	-6.8%[1.06 µM]
Cc1noc2nc(C(=O)O)nc(N3CCCCC3)c12	-19.7%	6.5%
COc1cc2cc(CNc3ccccc3)c(=O)n(CC(=O)Nc3ccccc3)c2cc1OC	46.1%[activator]	22.6%
CSCc1c(C(=O)OC2CCOC2=O)oc2ccccc12 (stereo not drawn)	3.9%	6.4%

Four records picked at random from the list so far, as already listed:
canonical_smiles	2A firefly	2A Renilla
CCN(CC)S(=O)(=O)c1ccc(Cl)c(NC(=O)COC(=O)c2cc(=O)c3ccccc3o2)c1	0.0%	11.0%
CC(C)c1ccccc1Oc1c(C(F)(F)F)oc2c(CN3CCN(C)CC3)c(O)ccc2c1=O	6.5%	-9.2%
CC[C@@]1(O)C(=O)OCc2c1cc1n(c2=O)Cc2cc3c(CN(C)C)c(O)ccc3nc2-1	u	u
Cc1noc2nc(C(=O)O)nc(N3CCCCC3)c12	-19.7%	6.5%

New compounds follow
canonical_smiles	2A firefly	2A Renilla
CCc1ccc(NC(=O)Nc2c(N3CCCC3)c3ccccc3oc2=O)cc1	50.3%[activator]	19.8%
COc1ccc(OC)c(CCNC(=O)c2nn(C)c3c2CS(=O)(=O)c2ccccc2-3)c1	-5.6%	20.3%
O=c1[nH]c2ccc(S(=O)(=O)Nc3cc(Cl)ccc3O)cc2o1	-0.6%	70.9%[activator]
CCc1sc(C(=O)NCc2ccccc2OC)cc1C	27.2%	22.6%
Cc1nc(SCc2nc(-c3ccc(Cl)cc3)oc2C)[nH]c(=O)c1C	11.5%	-2.2%
COc1ccc(C)cc1-n1nnc(C(=O)Nc2ccc(Br)cc2)c1C	-5.3%	u
CC(C)(C)CC(=O)NCC(=O)C(C#N)c1ccc2ccccc2n1 (stereo not drawn)	18.1%	-3.2%
COc1ccc(C(=O)Nc2c(C)nc(Nc3ccc(C)cc3)nc2Nc2ccc(C)cc2)cc1OC	-1.4%	-8.5%
O=C1CSC2(C(=O)N(Cc3ccccc3)c3ccccc32)N1c1ccc(Cl)cc1 (stereo not drawn)	-13.4%	-2.5%
COc1ccc(C2CCCN2C(=O)c2ccc(-n3cccn3)cc2)c(OC)c1 (stereo not drawn)	11.1%	32.3%[activator]
CC(C)c1ccc2c(c1)-c1ccccc1S(=O)(=O)N2CC(=O)NCc1cccnc1	8.2%	113.7%[activator]
N#Cc1cccc(CSc2nccc(C(F)(F)F)n2)c1	10.8%	-2.5%
COCCn1c(C)cc(O)c(C(c2ccc(F)cc2)N2CCN(c3ccccc3)CC2)c1=O (stereo not drawn)	u	31.2%[activator]
CCCN(CCC)CCCNC(=O)Cn1ncc2c3ccccc3n(Cc3ccc(F)cc3)c2c1=O	-2.5%	-9.5%
Cc1cc(OCC(=O)Nc2ccc3c(c2)OCCO3)c2c(C)cc(=O)oc2c1	6.5%	20.3%
O=C(NC(c1ccccc1)c1ccc(Br)cc1)C(c1ccccc1)C1CCCC1 (stereo not drawn)	4.2%	10.9%
Cc1ccc(S(=O)(=O)NC(CO)C(=O)O)cc1 (stereo not drawn)	-1.8%	6.5%
COc1ccc(C2=NS(=O)(=O)N(C)C(C(=O)NCc3ccccc3)=C2)cc1OC	-11.5%	29.7%
CC(=O)C1=CC[C@H]2[C@@H]3CC=C4C[C@@H](O)CC[C@]4(C)[C@H]3CC[C@]12C	-3.8%	-9.4%
CCN(CC)CCNc1ncnc2c1oc1nc(C)c3c(c12)CC(C)(C)OC3	-11.3%	-20.4%

Following part
canonical_smiles	2A firefly	2A Renilla
O=C(NCC(c1ccc2c(c1)OCO2)N1CCOCC1)C(=O)Nc1ccc(Cl)cc1 (stereo not drawn)	-17.2%	-10.7%
CCCNC(=O)CSc1cn(CC(=O)N2CCCCCC2)c2ccccc12	-19.5%	-4.0%
COc1ccc(OC)c(NC(=O)COC(=O)c2cc(S(=O)(=O)N3CCOCC3)ccc2F)c1	-2.8%	-6.7%
Cc1nc2nc(NCc3cc(F)cc(F)c3)[nH]n2c(=O)c1C	21.0%	2.0%
CC1CCCC(NC(=O)c2ccc3c(Cl)c4c(nc3c2)CCC4)C1C (stereo not drawn)	30.0%[activator]	68.2%[activator]
COc1ccc(CCn2c(=O)c3cccnc3n(CC(=O)Nc3c(C)cccc3C)c2=O)cc1OC	7.3%	-1.7%
OC[C@H]1O[C@@H]2O[C@H]3[C@H](O)[C@@H](O)[C@@H](O[C@H]4[C@H](O)[C@@H](O)[C@@H](O[C@H]5[C@H](O)[C@@H](O)[C@@H](O[C@H]6[C@H](O)[C@@H](O)[C@@H](O[C@H]7[C@H](O)[C@@H](O)[C@@H](O[C@H]8[C@H](O)[C@@H](O)[C@@H](O[C@H]1[C@H](O)[C@H]2O)O[C@@H]8CO)O[C@@H]7CO)O[C@@H]6CO)O[C@@H]5CO)O[C@@H]4CO)O[C@@H]3CO	-16.9%	-9.9%
CCOc1ccc(OCC)c(NC(=O)CCc2c(C)nc3c(c2C)c(=O)n(C)c(=O)n3C)c1	-24.6%	-17.3%
Cc1nc2ccc(Cl)cc2cc1C(=O)N(C)C(C)c1ccccc1 (stereo not drawn)	-3.3%	184.3%[activator]
COc1ccc(-c2[nH]ncc2-c2ccccc2)c(O)c1	-38.7%	-28.5%
COc1ccc2cc1Oc1ccc(cc1)C[C@H]1c3c(cc4c(c3Oc3cc5c(cc3OC)CCN(C)[C@@H]5C2)OCO4)CCN1C	-18.4%[11.5 µM]	11.0%
O=C(CSCc1ccc(F)cc1Br)Nc1ccc2c(c1)OCCO2	176.9%[activator]	15.9%
CC(C)(C)c1ccc(C(=O)NCC(c2cccs2)N2CCCC2)cc1 (stereo not drawn)	16.4%	-3.7%
CN(CC(=O)NCc1nc(-c2ccccc2Cl)no1)S(=O)(=O)c1ccc2ccccc2c1	-27.3%	-9.0%
COc1ccccc1-c1nc(SCc2cc(=O)n3c4c(sc3n2)CCCC4)n[nH]1	-2.8%	17.3%
FC(F)(F)c1cnc(Sc2nnc3ccccn23)c(Cl)c1	-2.0%	1.1%
Cc1ccc(C(=O)N(Cc2cccs2)C2CC2)o1	-9.0%	2.2%
CC(=O)c1ccc(N2CCN(C(=O)c3csc(-c4ccc(Cl)cc4)n3)CC2)cc1	-8.7%	-5.6%
COc1ccc(-n2c(=O)c3sc4ccccc4c3n(Cc3ccccc3)c2=O)cc1	-18.2%	-12.6%
COC(=O)c1ccc(NC(=O)C(=O)NCCc2sc3nc(-c4ccc(OC)cc4)nn3c2C)cc1	-0.5%	-7.0%
